Screens: PubChem, Broad Institute
Vaccinia inh = blocks a specific stage of Vaccinia orthopoxvirus infection; Vaccinia-infected cells, mCherry/Venus stage reporter fluorescence; hits give low values; some inactives read as strong as hits; activity change (mCherry), % (no concentration beside the values); 0.01% of 89,000 active; AID 1053133;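 active means mCherry past -33% and 40 or more points under the early reporter, replicates agreeing; inconclusive means past -33% without that gap or agreement; tested in A549 cells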;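 further: scaled between vehicle wells and reference inhibitor wells; 23 nL library stock went into each well; one replicate is shown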
Vaccinia inh Venus = also measured in Vaccinia inh; calls as there; activity change (Venus), %; measured here: Venus reporter, other viral stage;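 negative = less Venus signal; first of two replicates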
The depositor's hits bear a star; ? = inconclusive; . = no result given; & = joins results of further samples. An excerpt; count on the stated rates, not on these rows.

SMILES	Vaccinia inh	Vaccinia inh Venus
CC(C)NC(=O)Nc1ccc2c(c1)CC(=O)N([C@@H](C)CO)C[C@@H](C)[C@@H](CN(C)Cc1ccncc1)O2	12	-1
CCCN1C[C@H](C)[C@@H](OC)CN(C)C(=O)c2ccc(NC(=O)Nc3c(C)noc3C)cc2OC[C@@H]1C	6	3
CC(C)CC#Cc1cnc2c(c1)C(=O)N([C@H](C)CO)C[C@@H](C)[C@H](CN(C)C(=O)c1cnccn1)O2	24	10
COc1cccc(-c2cnc3c(c2)C(=O)N([C@H](C)CO)C[C@H](C)[C@H](CN(C)S(=O)(=O)c2ccc(F)cc2)O3)c1	-23	-22
COc1cccc(C(=O)Nc2ccc3c(c2)C(=O)N(C)C[C@H](OC)[C@@H](C)CN(C)[C@@H](C)CO3)c1	1	5
C[C@H](NC(=O)C[C@H]1C=C[C@@H](NC(=O)Cc2ccccn2)[C@H](CO)O1)c1ccccc1	9	11
CN(C)C(=O)[C@H]1[C@H](CO)[C@H]2Cn3c(cccc3=O)[C@@H]1N2CC1CCCCC1	9	7
COc1ccc(NC(=O)Nc2ccc3c(c2)C(=O)N([C@@H](C)CO)C[C@@H](C)[C@H](CN(C)Cc2ccc(Oc4ccccc4)cc2)O3)cc1	6	4
CNC(=O)C[C@@H]1CC[C@H]2[C@H](COc3ccc(NC(=O)Nc4cccc(C)c4)cc3C(=O)N2C)O1	22	6
CC(C)NC(=O)N[C@H]1CC[C@H](CCN)O[C@H]1CO	4	11
C[C@@H]1CN([C@@H](C)CO)S(=O)(=O)c2ccc(C#C[C@@H](C)O)cc2O[C@@H]1CN(C)C(=O)C1CCCCC1	6	12
COCC(=O)Nc1ccc2c(c1)[C@@H]1C[C@@H](CC(=O)N[C@@H](C)c3ccccc3)O[C@@H](CO)[C@@H]1O2	9	12
O=C(C[C@H]1CC[C@@H](NC(=O)c2ccc(F)cc2)[C@H](CO)O1)NCCc1ccncc1	13	6
CN(C)C(=O)c1cccc(-c2ccc([C@H]3[C@H]4CN(C(=O)CC5CC5)CC(=O)N4[C@H]3CO)cc2)c1	19	6
CCCN1[C@@H]2c3cccc(=O)n3C[C@@H]2[C@@H](CO)[C@@H]1C(=O)NC1Cc2ccccc2C1	3	7
CC(C)NC(=O)Nc1ccc2c(c1)CC(=O)N([C@H](C)CO)C[C@H](C)[C@H](CN(C)S(=O)(=O)c1cccs1)O2	18	22
CCCC#Cc1cnc2c(c1)C(=O)N([C@H](C)CO)C[C@H](C)[C@@H](CN(C)C(=O)Nc1ccccc1F)O2	10	6
COc1ccccc1-c1cnc2c(c1)C(=O)N([C@@H](C)CO)C[C@@H](C)[C@H](CN(C)C(=O)c1ccncc1)O2	15	7
CC(C)N(C[C@@H]1N[C@@H](CO)[C@@H]1c1ccccc1)S(=O)(=O)c1ccccc1	-26	-18
CC(=O)N(C)C[C@H]1Oc2cc(C#CC3(O)CCCC3)ccc2S(=O)(=O)N([C@@H](C)CO)C[C@@H]1C	16	11
CC(C)NC(=O)N[C@@H]1C=C[C@H](CC(=O)N2CCCCC2)O[C@H]1CO	39	22
c1ccc(-c2ccc(C3[C@H]4CNC[C@@H]3N4Cc3ccccn3)cc2)cc1 (stereo partly drawn)	1&7	-3&0
CO[C@@H]1CN(C)C(=O)c2ccc(NC(C)=O)cc2OC[C@H](C)N(Cc2ccccn2)C[C@H]1C	20	13
C[C@@H]1CCCCO[C@@H](CN(C)S(=O)(=O)c2cccs2)[C@H](C)CN([C@@H](C)CO)C(=O)c2cc(NC(=O)Nc3ccc(F)cc3)ccc2O1	-19	12
CCCC(=O)N1CC2(C1)CN(Cc1ccccc1F)[C@H](CO)c1c2c2ccc(OC)cc2n1C	0	-4
Other records follow:
SMILES	Vaccinia inh	Vaccinia inh Venus
C[C@@H]1CN([C@H](C)CO)C(=O)c2cc(NS(=O)(=O)c3cn(C)cn3)ccc2O[C@@H]1CN(C)S(C)(=O)=O	8	9
C[C@@H]1CCCCO[C@H](CN(C)C(=O)Nc2cccc3ccccc23)[C@@H](C)CN([C@H](C)CO)C(=O)c2cc(NC(=O)C3CCCCC3)ccc2O1	6	5
CN(C)C(=O)c1cccc(-c2ccc([C@@H]3[C@@H](C#N)N(C(=O)C4CC4)[C@@H]3CO)cc2)c1	16	17
O=C(NCC(F)(F)F)[C@@H]1[C@@H](CO)[C@@H]2Cn3c(cccc3=O)[C@H]1N2C(=O)C1CC1	-4	-5
O=C(Nc1cc(F)ccc1F)N[C@H]1CC[C@H](CCn2cc(C3CCCC3)nn2)O[C@@H]1CO	-7	-13
CCC(=O)N(C)C[C@H]1Oc2cc(-c3ccccc3F)ccc2S(=O)(=O)N([C@H](C)CO)C[C@H]1C	-2&0	-4&9
C[C@H]1CCCCO[C@H](CN(C)Cc2ccc(Cl)c(Cl)c2)[C@@H](C)CN([C@@H](C)CO)C(=O)c2cc(NC(=O)Nc3ccc4c(c3)OCO4)ccc2O1	-13	1
CCC(=O)N1C[C@H](C)[C@@H](OC)CN(C)C(=O)c2ccc(NC(=O)c3cnccn3)cc2OC[C@@H]1C	8	9
CC(C)NC(=O)N1[C@H](C#N)[C@@H](c2ccc(C#CC3CC3)cc2)[C@@H]1CO	-4	-3
CC(C)(C)[S@](=O)N1Cc2cc(C(=O)N3CCOCC3)nc(-c3cccc(-c4ccc(C#N)cc4)c3)c2[C@@H]1CCO	6	15
CN(C)C(=O)C[C@@H]1C[C@H]2c3cc(NC(=O)C4CCC4)ccc3O[C@H]2[C@@H](CO)O1	7	3
C[C@H]1CCCCO[C@H](CN(C)C(=O)CCCN(C)C)[C@@H](C)CN([C@@H](C)CO)C(=O)c2cc(NS(=O)(=O)c3ccc(Cl)cc3)ccc2O1	30	23
COc1ccc(NC(=O)N(C)C[C@H]2Oc3ncc(C4=CCCC4)cc3C(=O)N([C@H](C)CO)C[C@H]2C)cc1	7	2
N#Cc1ccc(-c2ccc(C3[C@@H]4CN(C(=O)C5CCC5)C[C@H]3N4)cc2)cc1 (stereo partly drawn)	?	14
CO[C@@H]1CN(C)C(=O)c2cc(NC(=O)C3CCCC3)ccc2OC[C@H](C)N(C)C[C@@H]1C	-1	-3
C[C@@H]1CCCCO[C@@H](CN(C)CC2CCCCC2)[C@H](C)CN([C@@H](C)CO)C(=O)c2cc(NC(=O)Nc3ccc(F)cc3)ccc2O1	?	.
CN1CCN(C(=O)C[C@H]2C[C@H]3c4cc(NS(C)(=O)=O)ccc4O[C@H]3[C@H](CO)O2)CC1	3	5
O=C(C[C@@H]1CC[C@H](NS(=O)(=O)c2ccc(F)cc2)[C@@H](CO)O1)NCCN1CCCCC1	0	-2
O=S(=O)(NCC[C@H]1CC[C@@H](NS(=O)(=O)c2cccc(Cl)c2)[C@H](CO)O1)c1cccc(F)c1	-5	-3
C/C=C/c1ccc2c(c1)O[C@H](CN(C)C(=O)c1ccc(F)cc1)[C@@H](C)CN([C@@H](C)CO)S2(=O)=O	-3	-15
CS(=O)(=O)N1CC(=O)N2[C@@H](CO)[C@H](c3ccc(C#Cc4cccc(F)c4)cc3)[C@@H]2C1	-2	-1
O=C(CN1CCOCC1)N1CCCCN2[C@H](CO)[C@H](c3ccc(/C=C/c4ccccc4)cc3)[C@@H]2C1	-3	1
O=C(NCc1ccc2c(c1)OCO2)[C@H]1[C@H](CO)[C@H]2Cn3c(cccc3=O)[C@@H]1N2Cc1ccccc1	-1	11
CC(C)OC(=O)N(C)C[C@H]1OCc2cnnn2CCCC(=O)N([C@@H](C)CO)C[C@@H]1C	4	3
COc1ccc(S(=O)(=O)N(C)C[C@H]2OCCCC[C@@H](C)Oc3ccc(NC(=O)Nc4ccc(F)cc4)cc3C(=O)N([C@@H](C)CO)C[C@@H]2C)cc1	-6	2

Structures shown so far containing an aryl methoxy group (seven):
SMILES	Vaccinia inh	Vaccinia inh Venus
COc1cccc(-c2cnc3c(c2)C(=O)N([C@H](C)CO)C[C@H](C)[C@H](CN(C)S(=O)(=O)c2ccc(F)cc2)O3)c1	-23	-22
COc1cccc(C(=O)Nc2ccc3c(c2)C(=O)N(C)C[C@H](OC)[C@@H](C)CN(C)[C@@H](C)CO3)c1	1	5
COc1ccc(NC(=O)Nc2ccc3c(c2)C(=O)N([C@@H](C)CO)C[C@@H](C)[C@H](CN(C)Cc2ccc(Oc4ccccc4)cc2)O3)cc1	6	4
COc1ccccc1-c1cnc2c(c1)C(=O)N([C@@H](C)CO)C[C@@H](C)[C@H](CN(C)C(=O)c1ccncc1)O2	15	7
CCCC(=O)N1CC2(C1)CN(Cc1ccccc1F)[C@H](CO)c1c2c2ccc(OC)cc2n1C	0	-4
COc1ccc(NC(=O)N(C)C[C@H]2Oc3ncc(C4=CCCC4)cc3C(=O)N([C@H](C)CO)C[C@H]2C)cc1	7	2
COc1ccc(S(=O)(=O)N(C)C[C@H]2OCCCC[C@@H](C)Oc3ccc(NC(=O)Nc4ccc(F)cc4)cc3C(=O)N([C@@H](C)CO)C[C@@H]2C)cc1	-6	2

Looked up above.
Vaccinia inh with CC(C)NC(=O)N1[C@H](C#N)[C@@H](c2ccc(C#CC3CC3)cc2)[C@@H]1CO reads -4
Vaccinia inh Venus with COc1ccc(S(=O)(=O)N(C)C[C@H]2OCCCC[C@@H](C)Oc3ccc(NC(=O)Nc4ccc(F)cc4)cc3C(=O)N([C@@H](C)CO)C[C@@H]2C)cc1 reads 2

Following part
SMILES	Vaccinia inh	Vaccinia inh Venus
C[C@H]1CN([C@@H](C)CO)C(=O)c2cc(NC(=O)CCN3CCOCC3)ccc2O[C@@H]1CN(C)Cc1ccncc1	15	9
N#C[C@H]1[C@H](c2ccc(C3=CCCCC3)cc2)[C@H](CO)N1C(=O)CN1CCOCC1	12	7
COc1ccc2c3c([nH]c2c1)[C@H](CO)N(C(=O)NC(C)C)CC31CCN(C(=O)NC(C)C)CC1	26	8
C[C@@H]1CN([C@@H](C)CO)C(=O)c2cc(NC(=O)C3CCCCC3)ccc2O[C@@H](C)CCCCO[C@H]1CN(C)Cc1ccccc1	?	.
COc1ccc(CN(C)C[C@H]2OCCCC[C@H](C)Oc3ccc(N(C)C)cc3C(=O)N([C@H](C)CO)C[C@H]2C)cc1	-18	-18
CCCNC(=O)Nc1ccc2c(c1)C(=O)N(C)C[C@@H](OC)[C@@H](C)CN[C@@H](C)CO2	11	15
Cc1noc(C)c1NC(=O)Nc1ccc2c(c1)C(=O)N([C@H](C)CO)C[C@H](C)[C@H](CN(C)Cc1ccc(Cl)c(Cl)c1)OCCCC[C@H](C)O2	?	.
CCCC(=O)Nc1ccc2c(c1)C(=O)N(C)C[C@@H](OC)[C@@H](C)CN(Cc1cccc(F)c1)[C@H](C)CO2	-22	-29
COc1ccc2c3c(n(C)c2c1)[C@@H](CO)N(C(=O)C1CCC1)CC31CCN(C(=O)CN(C)C)CC1	6	5
COc1ccccc1-c1cn(CC[C@@H]2CC[C@@H](NC(=O)CCN3CCCCC3)[C@H](CO)O2)nn1	6	14
O=C(C[C@H]1C[C@H]2c3cc(NC(=O)c4ccc5c(c4)OCO5)ccc3O[C@H]2[C@@H](CO)O1)NCc1ccc(Oc2ccccc2)cc1	10	10
O=C(Nc1cccc(F)c1)N1CC(=O)N2[C@H](C1)[C@H](c1ccc(Br)cc1)[C@@H]2CO	-5	-11
O=C(C[C@@H]1CC[C@H]2NC[C@H](O)COC[C@@H]2O1)NCCN1CCCC1	8	5
CCCNC(=O)N(C)C[C@@H]1Oc2ncc(C#CCC3CCCC3)cc2C(=O)N([C@H](C)CO)C[C@H]1C	-3	-6
COc1ccc(S(=O)(=O)N(C)C[C@@H]2Oc3c(NS(=O)(=O)c4ccccc4)cccc3C(=O)N([C@H](C)CO)C[C@@H]2C)cc1	-17	-12
CO[C@@H]1CN(C)C(=O)c2cc(NC(=O)NC(C)C)ccc2OC[C@H](C)N(C(=O)CN(C)C)C[C@@H]1C	11	4
COc1ccccc1NC(=O)N[C@H]1C=C[C@H](CC(=O)NCc2ccc(Cl)c(Cl)c2)O[C@@H]1CO	-5	6
C[C@H]1CN([C@@H](C)CO)S(=O)(=O)c2ccc(C#CC(C)(C)O)cc2O[C@@H]1CN(C)Cc1ccccc1	?	.
C[C@H](CO)N1C[C@H](C)[C@H](CN(C)C(=O)Nc2ccccc2)Oc2ccc(NS(=O)(=O)c3ccccc3)cc2CC1=O	-3	-3
C[C@@H]1CN([C@H](C)CO)C(=O)c2cc(C#Cc3ccccn3)cnc2O[C@@H]1CN(C)C(=O)c1ccccn1	-1	6
COc1ccc(C#Cc2ccc3c(c2)[C@]2(C(=O)N3)[C@H](C(N)=O)[C@H]3C(=O)O[C@H](c4ccccc4)[C@H](c4ccccc4)N3[C@@H]2c2ccc(O)cc2)cc1	-2	-7
C[C@@H]1CN([C@@H](C)CO)C(=O)c2cc(-c3cccc(C#N)c3)cnc2O[C@@H]1CN(C)Cc1cccnc1	20	12
COc1cccc(-c2ccc3c(c2)[C@@H]2[C@@H](CCN2S(=O)(=O)c2ccccc2C)[C@H](CO)N3C)c1	?	.
CC(C)CC#Cc1cnc2c(c1)C(=O)N([C@@H](C)CO)C[C@H](C)[C@@H](CN(C)Cc1cccc(F)c1)O2	-21	-22
C[C@H](CO)N1C[C@H](C)[C@H](CN(C)CC2CCOCC2)Oc2cc(C3=CCCC3)ccc2S1(=O)=O	-22	-24
COCC#Cc1ccc([C@@H]2[C@@H](CO)N3CCCCN(C(=O)Nc4cc(F)ccc4F)C[C@H]23)cc1	24	-1

Reprinted at random: 3 entries already listed.
SMILES	Vaccinia inh	Vaccinia inh Venus
CCCC(=O)Nc1ccc2c(c1)C(=O)N(C)C[C@@H](OC)[C@@H](C)CN(Cc1cccc(F)c1)[C@H](C)CO2	-22	-29
COCC#Cc1ccc([C@@H]2[C@@H](CO)N3CCCCN(C(=O)Nc4cc(F)ccc4F)C[C@H]23)cc1	24	-1
C[C@H](CO)N1C[C@H](C)[C@H](CN(C)CC2CCOCC2)Oc2cc(C3=CCCC3)ccc2S1(=O)=O	-22	-24
